# Source: PubChem BioAssay
# TRPML1 blocker – human mucolipin-1 channel inhibition. TRPML1-inducible cells, Ca2+ dye fluorescence, FDSS; hits give low values; inhibition of EC80 agonist-evoked calcium signal. Q9GZU1. 390,000 tested, 0.02% active. activity change, negative = inhibition, % (no concentration beside the values). AID 624415; in the data active means activity change below about -50%; inconclusive means about -30% to -50%; inactive means above about -30%;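 further: stimulus is agonist 54-4 at its EC80 concentration; on the % scale 0 is the no-effect control and ±100 the full control effect; compound concentration not given in the record; the text of the record puts the active cut at -80%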
# Target sequence (Q9GZU1 whole entry, looked up): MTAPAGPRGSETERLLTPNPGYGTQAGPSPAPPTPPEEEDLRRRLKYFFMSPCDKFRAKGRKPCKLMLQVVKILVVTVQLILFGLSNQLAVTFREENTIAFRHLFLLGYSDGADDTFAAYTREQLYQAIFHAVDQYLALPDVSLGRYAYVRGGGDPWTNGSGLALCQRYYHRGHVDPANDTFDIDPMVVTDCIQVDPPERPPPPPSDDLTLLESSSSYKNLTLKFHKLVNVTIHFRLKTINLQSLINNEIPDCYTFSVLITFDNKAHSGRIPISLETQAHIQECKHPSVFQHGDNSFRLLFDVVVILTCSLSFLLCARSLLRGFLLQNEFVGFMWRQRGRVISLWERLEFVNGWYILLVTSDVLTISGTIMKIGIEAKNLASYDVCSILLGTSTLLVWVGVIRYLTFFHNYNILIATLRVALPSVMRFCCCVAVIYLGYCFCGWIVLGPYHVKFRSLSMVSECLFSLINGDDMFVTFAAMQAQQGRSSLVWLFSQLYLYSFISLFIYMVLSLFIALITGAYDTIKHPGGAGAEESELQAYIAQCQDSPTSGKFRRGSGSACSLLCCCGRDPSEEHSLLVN
#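 TRPML1-DL cells, Tet-induced overnight (~16 h, 37 °C) at 1,500 cells/well, were loaded with Ca8 no-wash dye plus quencher for 45-90 min at room temperature. Compounds were pinned during FDSS kinetic reading; agonist 54-4 at EC80 (4 uM final) then added.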
# TRPML1 agonist – human mucolipin-1 channel agonism. TRPML1-expressing cells, Ca2+ dye fluorescence, FDSS; host cell line not named in the record; reference of the full effect not given here. 410,000 tested, 0.12% active. Q9GZU1. activation, % (concentration not given with the values); in the data active = activation above about 50%; inconclusive = about 30% to 50%; inactive = below about 30%; further: 0% is about no effect; the text of the record puts the active cut at 80%
#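 Kinetic FDSS Ca2+ read in Tet-induced TRPML1-DL cells (ABD Ca8 dye plus quencher, 45-90 min RT loading): baseline, then compound, then 110 s agonist window; EC80 agonist 54-4 at 4uM final added afterwards for a 110 s antagonist window.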
# * = called active by the depositor; ? = inconclusive. Some of the compounds tested; the hit share may differ from the screen's.
SMILES,TRPML1 blocker,TRPML1 agonist
CCCOc1cccc(C(=O)Nc2ccc(-c3nc4ccccc4o3)cc2)c1,-4.4,-0.7
NCCCCCc1nnc(SCc2ccc(F)cc2)o1,4.6,1.6
CCCc1nnc(N2C(=O)c3oc4ccc(F)cc4c(=O)c3C2c2ccc(C(=O)OC)cc2)s1 (stereo not given),17.9,-0.2
COc1ccc(CNC(=O)Cn2ncc3c([nH]c4ccccc43)c2=O)cc1,-17.6,2.2
Cc1[nH]c2ccccc2c1C1(O)C(=O)N(Cc2ccc(Cl)cc2)c2ccccc21 (stereo not given),-16.3,-0.1
COc1cc(OC)cc(C(=O)Nc2ccc3nc(N4CCC(C)CC4)cc(C)c3c2)c1,10.7,0.1
CCCN(C(=O)CCn1cnc2onc(-c3ccc(F)cc3)c2c1=O)c1ccccc1C,4.1,0.4
Cc1ccc(NC(=O)c2c(NC(=O)Cc3ccccc3)sc3c2CCC3)cc1,5.9,0.5
COc1ccc(NC(=O)NC2COc3ccccc3C2)cc1Cl (stereo not given),0.2,-0.5
COc1ccccc1N1CCN(CCCNC(=O)c2cnn(-c3ccccc3Cl)c2C2CCN(C(=O)OC(C)(C)C)CC2)CC1,-3.1,4.0
O=C(NCc1ccc(Cl)cc1)c1cnc(N2CCOCC2)c2ccccc12,-2.8,-0.5
COc1ccc(-c2cn3nc(N4CCC(C(=O)Nc5cccc(C)c5C)CC4)sc3n2)cc1,-12.7,0.3
COc1ccc(C2=NC(C)(C)N(CC(=O)Nc3cc(OC)cc(OC)c3)C2=O)cc1,19.0,0.6
Clc1cccc(N2CCN(c3ncnc4c3nc3n4CCCC3)CC2)c1,5.6,-1.3
CCCCN(CC)CCCNC(=O)c1cn(CC)c2ccc(S(=O)(=O)N3CCOCC3)cc2c1=O,8.0,0.1
CN(Cc1ccccc1)C(=O)c1cc2c(=O)n(C)c3ccccc3c2s1,14.9,0.3
Cc1ccc(-n2ncc3c(NCCCn4ccnc4)ncnc32)cc1,-1.0,-0.4
CCc1ccccc1NC(=O)Nc1ccc2c(c1)N(CC)C(=O)c1ccccc1S2,-2.0,1.3
Cc1c(CNC2CCCCC2)c(C(=O)O)c(C)n1Cc1ccccc1F,-8.1,-0.5
Cc1cc(C)c(NC(=O)C(=O)NCC(c2cccnc2)N2CCN(Cc3ccccc3)CC2)c(C)c1 (stereo not given),-15.5,0.5

# Some of these compounds in order of their number in TRPML1 blocker, smallest number first:
Molecule	TRPML1 blocker
Cc1c(CNC2CCCCC2)c(C(=O)O)c(C)n1Cc1ccccc1F	-8.1
O=C(NCc1ccc(Cl)cc1)c1cnc(N2CCOCC2)c2ccccc12	-2.8
CCc1ccccc1NC(=O)Nc1ccc2c(c1)N(CC)C(=O)c1ccccc1S2	-2.0
Cc1ccc(NC(=O)c2c(NC(=O)Cc3ccccc3)sc3c2CCC3)cc1	5.9

# The listing continues:
SMILES,TRPML1 blocker,TRPML1 agonist
CCOc1ccccc1CN1CCc2nc(Nc3ccccc3)ncc2C1,-26.3,2.6
CS(=O)(=O)NCC(c1ccco1)N1CCN(c2ccccc2)CC1 (stereo not given),23.3,1.5
CCCCn1cc2c(c1-c1ccccc1Br)c(=O)n(C)c(=O)n2C,17.5,0.7
CSc1ccc(CCNC(=O)C2CCN(c3nc4ccccc4nc3C(F)(F)F)CC2)cc1,-14.8,-0.6
Cc1ccc(Cl)cc1-n1ncc2c(NCCCn3ccnc3)ncnc21,-21.0,-1.0
COc1cc2[nH]c(=O)n(CCCC(=O)N(C)Cc3ccccc3)c(=O)c2cc1OC,-4.8,-1.0
COc1ccccc1C(=O)NC1(C(F)(F)F)C(=O)NC(C)=C1C#N (stereo not given),1.7,0.3
CCc1ccccc1NC(=O)CN1C(=O)COc2ccc(S(=O)(=O)N3CCCCCC3)cc21,-11.4,-0.7
O=S1(=O)C2CC3CCC2(CN1Cc1ccccc1)O3 (stereo not given),8.0,1.5
COc1ccc(NC(=O)CN2CCCN(Cc3ccccc3)S2(=O)=O)cc1,2.5,-0.4
Cc1ccc(OCCn2cc(C(=O)C3CCCCC3)c3ccccc32)cc1,78.9,4.2
CCc1ccc2oc(-c3ccc(C)c(NC(=O)/C=C/c4ccco4)c3)nc2c1,-3.8,1.7
COc1cccc(CNC(=O)c2ccc3c(c2)N(Cc2ccc(C(F)(F)F)cc2)C(=O)c2ccccc2S3)c1OC,37.3,3.6
Cc1cccc(-n2ncc3c(N4CCCCCC4)ncnc32)c1,-1.6,0.1
O=C(c1ccc(F)cc1)N1CCC(c2nc(-c3ccc(S(=O)(=O)N4CCCC4)cc3)no2)CC1,8.2,-0.1
Cc1cc(C(=O)NCc2ccccc2)c2c(C)nn(-c3cccc(F)c3)c2n1,47.5,1.9
CC(C)n1c(=O)c2oc3ccccc3c2n(Cc2ccccc2F)c1=O,-7.5,-1.0
Cc1cc(C)cc(NC(=O)CSc2nc3ncccc3[nH]2)c1,-2.3,0.3
CCc1ccccc1Nc1nc2ccccc2c2nncn12,-6.2,1.2
COc1cc(OC)cc(-c2cc3nc(C)c(CCC(=O)Nc4ccccc4OC)c(C)n3n2)c1,-6.5,-0.1
O=C(NC1CCCCC1)c1cc2c(Cl)nc3ccccc3c2s1,-13.8,-0.8
O=C(CCS(=O)(=O)c1cccs1)Nc1ccc(C(=O)Nc2cccc(Cl)c2)cc1,-3.7,0.9
CCCCOC(=O)c1ccc(NC(=O)c2cc(=O)c3ccccc3o2)cc1,-3.9,-0.1
Cc1ccccc1NC(=O)CCC(=O)N1CCSc2ccccc21,29.8,0.4
COc1cccc(NC(=O)Cn2c(=O)n(CCCCC(=O)NCCc3ccccc3)c(=O)c3ccccc32)c1,-4.0,0.3
CCCc1cnc2c(c1SCC(=O)Nc1ccccc1OCC)c(=O)n(C)c(=O)n2C,-17.7,-0.4
COc1ccc(NC(=O)CSc2nnc(NC(=O)Nc3ccc(OC)cc3)s2)cc1,-12.5,0.8
O=C1COc2cc(S(=O)(=O)CCC(=O)N3CCN(c4ccccc4)CC3)c(Cl)cc2N1,14.0,0.7
O=C(c1ccccc1)c1ccccc1NC(=O)c1ccccc1C(=O)O,5.7,-0.2
COc1cc(Cl)c(NS(=O)(=O)c2ccc(-c3cnc(C4CC4)o3)cc2)c(OC)c1,-7.1,0.8
CCOC(=O)c1cnc2cc(C(F)(F)F)ccc2c1N1CCN(c2cccc(Cl)c2)CC1,-9.2,0.5
CCOc1cccc(CC(=O)N2CCc3c([nH]c4ccccc34)C2c2ccc(F)cc2)c1OCC (stereo not given),1.5,0.3
CCS(=O)(=O)c1ncc(N(Cc2cccc(F)c2)Cc2ccco2)c(C(=O)Nc2ccccc2Cl)n1,10.3,0.5
O=C(Nc1cnn(Cc2ccc(Cl)cc2Cl)c1)c1noc2c1CCc1ccccc1-2,-14.2,0.3
CCCCSCCCNC(=O)c1c[nH]c2ccc(S(=O)(=O)Nc3cccc(OC)c3)cc2c1=O,-21.7,2.6
Cn1nnnc1SCCNCc1ccc(F)cc1,-9.2,3.0
COc1cccc(N2CCN(c3ncnc4c3nc3n4CCCCC3)CC2)c1,16.9,2.4
CSc1ccc(C2c3c(oc4ccc(F)cc4c3=O)C(=O)N2c2ccc(C)cn2)cc1 (stereo not given),18.2,1.3
COc1ccc(Nc2ncnc3c2cnn3-c2ccc(C)cc2C)cc1,22.1,0.7
COc1cc(/C=C(\C#N)c2nc3ccccc3n2C)cc(OC)c1OC,-0.8,-1.2
Cc1cc(C)cc(NC(=O)C(=O)NCCc2sc(-c3cccc(F)c3)nc2C)c1,-19.4,0.4
COc1cccc(CN2C(=O)C3(SCC(=O)N3c3ccc(C)c(Cl)c3)c3ccccc32)c1 (stereo not given),7.2,1.7
COc1cccc(CNC(=O)CSc2nnc(C)c3c(C)n(-c4ccccc4)nc23)c1OC,-3.5,0.3
COc1cccc(Nc2nc3cc(C)ccc3nc2NS(=O)(=O)c2ccc(Cl)cc2)c1,1.2,0.2
COc1ccc(N2CCN(C(=O)CCc3c(C)nc4cc(-c5cccc(F)c5)nn4c3C)CC2)cc1,25.2,0.0
Cc1ccc2occ(CC(=O)N(Cc3ccc(C(C)C)cc3)C3CCS(=O)(=O)C3)c2c1 (stereo not given),20.8,0.7
CCOC(=O)c1noc2ncnc(NCc3ccccc3OC)c12,3.9,-1.1
CCN(C(=O)c1cn(-c2ccc(OC)cc2)c(=O)c2ccccc12)c1cccc(Cl)c1,14.9,-0.1
CN(Cc1ccccc1)/[N+]([O-])=N/Oc1ccc([N+](=O)[O-])cc1[N+](=O)[O-],-13.5,1.4
CC(=O)c1c(C)oc2ccc(NS(=O)(=O)c3ccc(C(C)C)cc3)cc12,16.6,-0.2
CCC(C(=O)Nc1cccc(C#N)c1)n1nc(-c2ccccc2)ccc1=O (stereo not given),-1.5,-0.6
CC(C)(C)c1ccc(/C=C/C(=O)Nc2ccc(S(N)(=O)=O)cc2)cc1,-10.3,2.8
CCN(CC)c1ccc(NC(=O)CCCN2C(=O)C(c3ccccc3)Oc3cccnc32)c(C)c1 (stereo not given),79.7,0.0
COc1ccc(CCNC(=O)Cc2c(C)c3c(cc(C)c4c(C)c(C)oc43)oc2=O)cc1,6.3,-0.5
CCOC(=O)CSc1nc2c([nH]c3ccccc32)c(=O)n1-c1ccc(OC)cc1,7.5,0.5
COc1ccccc1C(=O)Nc1c(C(=O)N(C)c2ccccc2)sc2nc(C)cc(C)c12,-16.2,1.3
Cc1cc(CN2CCN(c3ccc(F)cc3)CC2)cs1,-8.8,-0.1
Cc1c(Cl)cccc1NS(=O)(=O)c1ccc(-c2cnc(C3CC3)o2)cc1,-5.7,0.0
CCc1ccc(NC(=O)CSc2nc(-c3ccccc3Cl)nc3c2Cc2c(CO)cnc(C)c2O3)cc1,-7.4,0.9
Nc1c(C(=O)Nc2ccccc2Cl)c2ccccn2c1C(=O)c1ccccc1,5.6,1.0

# More entries.
SMILES,TRPML1 blocker,TRPML1 agonist
COc1cc(Cl)c(C)cc1NC(=O)C1CCCN(c2ncnc3onc(-c4ccc(F)cc4)c23)C1 (stereo not given),-4.1,0.8
O=C(CCc1ccccc1)N1CCc2c([nH]c3ccccc23)C1c1ccc(Cl)cc1 (stereo not given),-10.0,0.4
CCn1c(C(=O)NCc2ccccc2Br)cc2oc3ccccc3c21,5.4,2.7
Cc1c(C(=O)Nc2ccccc2Cl)oc2ccc(S(=O)(=O)N3CCCCC3)cc12,19.2,0.5
Cc1ccc(C)c(N2CCN(C(=O)CSCc3ccccc3Cl)CC2)c1,72.5,4.0
COc1ccc(C(=O)n2nc(-c3ccco3)nc2NCc2cccs2)cc1OC,0.5,0.7
COc1ccc(Cl)cc1NC(=O)N1CC(=O)Nc2sc3c(c2C1c1ccccc1)CCCC3 (stereo not given),-9.0,0.3
Cc1cc(C)c(NC(=O)CSc2ncc(S(=O)(=O)c3ccc(C(C)(C)C)cc3)c(=O)[nH]2)c(C)c1,12.5,1.2
CC(C)c1ccc(C2NC(=O)c3n[nH]c(-c4cccs4)c32)cc1 (stereo not given),-10.7,-0.1
COc1cc(NC(=O)N2CCC(CN3CCCCCC3)CC2)cc(OC)c1OC,3.9,0.8
O=C(c1ccccc1)c1cn(Cc2ccc(F)cc2)c2ccccc2c1=O,5.4,1.5
CCCC12CN3CC(CCC)(CN(C1)C3c1ccc(OCc3ccccc3)cc1)C2=O (stereo not given),-10.3,0.1
COCCn1c(SCC(=O)Nc2ccc(C(F)(F)F)cc2)nc2c([nH]c3ccccc32)c1=O,-5.6,1.4
CCc1ccccc1N(C)C(=O)c1cn(-c2cccc(OC)c2)c(=O)c2ccccc12,2.7,1.7
CCOc1ccc(-c2nn(-c3ccc(F)cc3)c3c2cnc2ccc(F)cc23)cc1,4.3,1.0
CC(C)(C)c1ccc(C(=O)Nc2ccc(OCc3cc(=O)n4ccsc4n3)cc2)cc1,-19.3,-0.7
Cc1ccc(NC(=O)CSCn2nnc3c(=O)[nH]c(Cc4ccc(F)cc4)nc32)c(C)c1,-17.6,2.5
CCC(=O)N1CCc2cc(Br)cc(S(=O)(=O)N3CCC(C(=O)N(CC)CC)CC3)c21,-12.5,2.6
Cc1ccc(Cn2c(C(C)NC(=O)c3ccccc3)nc3ccccc32)cc1 (stereo not given),-25.3,2.0
CCCCCCc1c(C)c2c(cc(C)c3c(C)c(C)oc32)oc1=O,?,-0.1
CC(NC(=O)c1cc(-c2ccc(Cl)cc2)on1)c1ccccc1 (stereo not given),-15.5,1.2
CCOC(=O)c1cc(-c2ccccc2)n(-c2cccc(C(=O)N(CC)c3ccccc3)c2)c1C,-9.5,-0.3
CCC(C)NC(=O)CSc1nc2c(sc3ccccc32)c(=O)n1CCc1ccc(OC)c(OC)c1 (stereo not given),-1.4,-0.5
COc1ccc(NC(=O)CSc2c3c(nc4ccccc24)CCC3)cc1Cl,-1.8,2.2
CCOC(=O)CNS(=O)(=O)c1cc(-c2nnc(Nc3cccc(O)c3)c3ccccc23)ccc1C,45.5,0.1
